# Polio RdRp inh: poliovirus RdRp elongation inhibitors, primary screen, biochemical, fluorescence polarization, total intensity | Genome polyprotein (Poliovirus type 1 (strain Mahoney)), P03300 | poliovirus polymerase elongation; hits give low values | % elongation, % (compound at 16.7 µg/mL) | 150,000 tested, 0.66% active | AID 588519, 2011; in the data active means % elongation below about 90%; further: some results filed as inactive read as strong as hits
# Target sequence (P03300 1749-2209 limits assumed): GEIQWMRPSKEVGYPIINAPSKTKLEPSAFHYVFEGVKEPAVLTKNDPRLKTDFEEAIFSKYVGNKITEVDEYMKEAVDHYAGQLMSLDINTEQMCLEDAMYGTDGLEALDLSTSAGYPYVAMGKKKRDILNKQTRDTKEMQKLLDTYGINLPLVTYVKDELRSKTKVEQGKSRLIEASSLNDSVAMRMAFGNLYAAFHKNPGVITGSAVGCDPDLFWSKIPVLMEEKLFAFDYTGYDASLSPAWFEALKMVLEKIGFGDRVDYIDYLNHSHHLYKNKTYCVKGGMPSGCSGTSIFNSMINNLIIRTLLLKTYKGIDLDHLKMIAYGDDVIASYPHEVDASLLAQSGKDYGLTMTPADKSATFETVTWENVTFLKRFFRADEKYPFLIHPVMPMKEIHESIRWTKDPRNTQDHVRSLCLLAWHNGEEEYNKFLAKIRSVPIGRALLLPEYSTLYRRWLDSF
# Polio RdRp inh intensity: also measured in Polio RdRp inh; calls as there; % elongation; measured here: total intensity read-out; formula for this scale not given here;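 total fluorescence in place of polarization; lower means less elongation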
# An asterisk follows results filed as active. Some of the compounds tested (hit frequency here may not be typical).
canonical_smiles,Polio RdRp inh,Polio RdRp inh intensity
Cc1ccc(C)c(NC(=O)C2CCCN(c3nc4ccccc4s3)C2)c1 (stereo unspecified),109,107
COC(=O)c1sc2c(c1C)c(=O)n(-c1ccccc1)c(=O)n2CC(=O)Nc1cccc(C)c1,108,113
CCOc1ccc(NC(=O)c2ccc(-c3cccc(Cl)c3C)o2)cc1,106,110
CN(C)c1ccc(CNC(=O)c2cccc(NC(=O)N3CCSc4ncccc43)c2)cc1,108,113
COc1ccc(-c2noc(CCC(=O)N(C)c3ccccc3C)n2)cc1,116,117
COc1cc(NS(=O)(=O)c2cc(Br)cc3c2N(C(=O)C2CC2)CC3)cc(OC)c1,104,92
CCOc1ccc(-c2cc(C(=O)NCc3ccccc3)c3c(-c4ccc(CC)cc4)[nH]nc3n2)cc1,111,111
Cc1cccc(CNC(=O)c2cnc3sc(N4CCCCCC4)nn3c2=O)c1,105,101
Oc1c(C(c2ccccc2F)N2CCN(c3ccccc3F)CC2)sc2nc(-c3ccco3)nn12 (stereo unspecified),104,108
COCCCn1c(SCC(=O)Nc2ccc(F)cc2)nc2c(sc3ccccc32)c1=O,104,102
CC(C)(C)NC(=O)CCSc1nc(-c2ccc3c(c2)OCO3)cc(C(F)(F)F)n1,103,104
CCn1c(=O)cc(OCC(=O)N2CCN(c3ccc(C(C)=O)cc3)CC2)c2ccccc21,105,105
O=C(Nc1cccc(C(F)(F)F)c1)c1cc2ccc3cccnc3c2[nH]1,97,109
O=C(Cn1nc(-c2ccccc2)c2cnc3ccc(F)cc3c21)NC1CCCC1,104,106
CCc1cccc(C)c1NC(=O)C1CCCN1S(=O)(=O)c1cccc2nsnc12 (stereo unspecified),105,109
Cc1ccccc1NC(=O)NCCCN1CCN(c2ccccc2F)CC1,105,105
CCc1ccccc1NC(=O)Cc1ccc(NC(=O)N2CCCCc3ccccc32)cc1,111,99
CC(C)CCNC(=O)Cn1nc(N2CCN(c3ccccc3)CC2)ccc1=O,107,107
CCCCC(=O)Nc1nnc(S(=O)(=O)N(CC)c2cc(C)cc(C)c2)s1,108,110
O=C(Nc1cccc(F)c1)c1cnc2sc(N3CCCC3)nn2c1=O,107,104
CCS(=O)(=O)N1CCc2cc(C(=O)Nc3ccc(OC)c(Cl)c3)ccc21,107,108
CCN(CC)CCNC(=O)C(=O)Nc1c2c(nn1-c1ccc(F)cc1)CSC2,112,112
CCN(Cc1nc(-c2ccc(OC)c(OC)c2)no1)S(=O)(=O)c1ccc(OC)cc1,112,112
CCOC(=O)c1c(Nc2ccc(F)cc2)nnc(-c2ccccc2)c1-c1ccccc1,109,109

# By substructure, the entries above with an aryl thioether with sulfur outside any ring.
canonical_smiles,Polio RdRp inh,Polio RdRp inh intensity
COCCCn1c(SCC(=O)Nc2ccc(F)cc2)nc2c(sc3ccccc32)c1=O,104,102
CC(C)(C)NC(=O)CCSc1nc(-c2ccc3c(c2)OCO3)cc(C(F)(F)F)n1,103,104

# Other records:
canonical_smiles,Polio RdRp inh,Polio RdRp inh intensity
Cc1ccc(-c2ccc(=O)n(Cc3cc(C)ccc3C)n2)cc1,110,114
COC(=O)c1cc2oc3ccccc3c2n1Cc1nc(-c2ccc(OC)cc2)oc1C,104,107
COc1ccccc1NC(=O)c1nn(C)c2c1CS(=O)(=O)c1ccccc1-2,113,117
O=C(CSc1nc2c(c(=O)[nH]1)CCC2)Nc1cccc(O)c1,109,106
COC(=O)c1ccc(NC(=O)CN(C)S(=O)(=O)c2ccc(Br)s2)cc1,105,106
CC(C)CC(NS(=O)(=O)c1ccc2c(c1)oc(=O)n2C)C(=O)NCc1ccccc1Cl (stereo unspecified),99,102
Cc1ccc(Cl)cc1Nc1nn2c(=O)c3ccc(C(=O)NC4CCCCC4)cc3nc2s1,106,102
COCC(C)NS(=O)(=O)c1ccc(N2CCCCS2(=O)=O)cc1 (stereo unspecified),107,111
COc1ccc(OC(=O)c2nc(SCc3ccc(C)cc3)ncc2Cl)cc1,101,105
Cc1cccc(Cn2c(SCc3ccc(C(=O)NCc4ccccc4F)cc3)nc3ccncc32)c1,113,116
COc1ccc(-c2cc(C(=O)NCc3ccc(F)cc3)no2)cc1,101,100
CC1=C(C(=O)OCC2CCCCC2)C(c2ccc(F)cc2F)CC(=O)N1 (stereo unspecified),107,113
CSc1ccc(CCNC(=O)CCc2c(C)nc3c4cccnc4nn3c2C)cc1,14*,39*
Cc1ccccc1C(=O)N1CCC(C(=O)Nc2ccc(F)cc2F)CC1,110,111
COc1cc(C(=O)NCCc2sc(-c3cccc(F)c3)nc2C)cc(OC)c1OC,109,112
O=C(NCc1ccccc1Cl)c1cnc2sc(N3CCCCC3)nn2c1=O,107,111
COc1cc2c(cc1OC)n(Cc1ccc([N+](=O)[O-])cc1)c(=O)n1nc(-c3ccccc3)nc21,106,104
COc1ccc(CNC(=O)Cn2c(=O)oc3cc(S(=O)(=O)N4CCC(C)CC4)ccc32)cc1,100,99
CCCCN(C)CCCNC(=O)c1cc(-c2cccnc2)nc2ccccc12,104,110
CCCCN(CC)CCCNC(=O)Nc1sc2nc3n(c(=O)c2c1C)CCC(C)CC3 (stereo unspecified),109,106
COc1cc(C(=O)NCC(c2cccs2)S(=O)(=O)c2cccs2)cc(OC)c1OC (stereo unspecified),110,116
COC(=O)c1ccc(NC(=O)CC2C(=O)N(c3ccccc3)C(=O)N2Cc2ccc(F)cc2)cc1 (stereo unspecified),105,107
COc1cc(C2CC(=O)c3c([nH]c(C(=O)OCC4CCCCC4)c3C)C2)cc(OC)c1OC (stereo unspecified),103,105
O=C(CCNS(=O)(=O)c1ccc2c(c1)CCN2C(=O)C1CC1)N1CCN(c2cccc(C(F)(F)F)c2)CC1,106,109
COc1ccc(-c2onc(C)c2C)cc1S(=O)(=O)N(C)Cc1ccccc1,103,98
O=S(=O)(Nc1ccccc1C(F)(F)F)c1ccc(N2CCCCS2(=O)=O)cc1,108,101
Cc1ccc(-n2nc3c(N4CCC(C(=O)NCCc5ccccc5C)CC4)nnc(C)c3c2C)cc1,107,110
Cc1ccccc1CCNC(=O)c1cc2ccccn2n1,109,103
CN1CCN(C(c2ccccc2)c2sc3nc(-c4ccco4)nn3c2O)CC1 (stereo unspecified),109,112
Cc1ccc(CCNC(=O)c2ccc(CS(=O)(=O)Cc3cccc(C)c3)o2)cc1,113,113
CCOc1ccc(CCNC(=O)c2c3c(nc4ccccc24)C(=O)N(C2CCCCC2)C3)cc1,99,106
COc1ccc(NC(=O)c2cc(S(=O)(=O)N3CCOCC3)ccc2OC)cc1,107,109
Cc1c(Cl)cccc1NC(=O)C(C)n1c(=O)cc(-c2ccccc2)c2c(C)nn(C)c21 (stereo unspecified),107,109
CCOC(=O)c1cnc2ccc(OCC)cc2c1Nc1ccc(OCc2ccccc2Cl)cc1,107,105
Cc1ccccc1-n1c(/C=C/c2c(C)[nH]c3ccccc23)nc2ccccc2c1=O,112,113
CCC1(C)CC(=O)c2c(ccc3oc(C(=O)NCc4ccccc4)c(C)c23)O1 (stereo unspecified),112,110
CCC12CN3CC(CC)(CN(C1)C3c1ccc(OCc3ccccc3)cc1)C2=O (stereo unspecified),112,112
COc1ccc(CCN2C(=O)CN(C3CCCCCC3)C(=O)C2c2ccc(Cl)cc2)cc1OC (stereo unspecified),110,111
CCN(CC)c1ccc(CNCCCSc2nnnn2C)cc1,110,110
Cn1c(=O)c2sccc2n2c(CCC(=O)N3CCN(c4ccc(F)cc4)CC3)nnc12,103,104
Cc1nn(-c2ccccc2)c(OC(=O)c2cccc(Br)c2)c1S(=O)(=O)c1ccccc1,108,104
Cc1c(CCC(=O)NCCc2ccc(Cl)cc2)c(=O)oc2c(C)c(O)ccc12,108,111
CCN1CCN(C(c2ccccc2Cl)c2c(O)cc(C)n(Cc3ccco3)c2=O)CC1 (stereo unspecified),106,107
Cc1cccc(N(CC(=O)NCc2ccccc2)S(C)(=O)=O)c1C,107,104
COc1ccc(/C=C/c2nc3ccccc3c(=O)n2-c2cccc(C(F)(F)F)c2)cc1,108,107
CCCCN(C)CCNC(=O)Cn1ncc2c([nH]c3ccccc32)c1=O,106,106
Nc1c(C(=O)Nc2ccc(Br)cc2)sc2nc(-c3ccncc3)ccc12,116,132
COc1ccccc1NC(=O)CSC1=Nc2ccccc2C2=NC(CC(=O)NCc3ccccc3)C(=O)N12 (stereo unspecified),98,100

# 3 entries from above, sorted by heavy-atom count, ascending.
canonical_smiles,Polio RdRp inh,Polio RdRp inh intensity
CCN(CC)c1ccc(CNCCCSc2nnnn2C)cc1,110,110
CCCCN(C)CCNC(=O)Cn1ncc2c([nH]c3ccccc32)c1=O,106,106
Cn1c(=O)c2sccc2n2c(CCC(=O)N3CCN(c4ccc(F)cc4)CC3)nnc12,103,104

# (listing goes on)
canonical_smiles,Polio RdRp inh,Polio RdRp inh intensity
COc1ccc(-c2cc(C(C)=O)c(C)n2CCC(=O)Nc2ccc(C)cc2Cl)cc1,104,98
Cc1ccc(CNC(=O)c2ccc(CS(=O)(=O)Cc3ccc(C)cc3)o2)cc1,110,104
CC(C)(C)C(=O)Cn1c(=O)n(-c2ccccc2)c(=O)c2c3c(sc21)CCC3,104,103
O=C(CN1C(=O)c2ccccc2Sc2ncccc21)Nc1cccc(C(F)(F)F)c1,110,116
CCC(Sc1nc2cc3c(cc2c(=O)n1CCCCCC(=O)NCc1ccc2c(c1)OCO2)OCO3)C(=O)NCCCOC (stereo unspecified),106,112
CCc1ccc(-c2cn3c(n2)sc2cc(C(=O)NC4CCCCCC4)ccc23)cc1,108,111
Cc1c(C(=O)Nc2ccc(F)c(Cl)c2)sc2nc3n(c(=O)c12)CCC3,111,110
COc1ccc(C2=C(C)C(=NCc3ccc(OC(C)C)cc3)NS2(=O)=O)cc1,106,106
COc1cc(NC(=O)c2cnc3c(-c4ccc(F)cc4)c(C)nn3c2C)cc(OC)c1,105,105
Cc1ccc(C2c3[nH]c4ccccc4c3CCN2C(=O)c2ccccc2Br)cc1 (stereo unspecified),106,108
O=C(NC1CCCCCC1)c1ccc(CS(=O)c2cccc(Cl)c2)o1 (stereo unspecified),106,100
COc1ccccc1NCc1cccn1-c1nnc(N2CCOCC2)s1,100,105
CCOc1ccc(-n2nc(CO)c(C(=O)NCc3cccs3)n2)cc1,107,113
COc1ccccc1CNC(=O)c1sc2nc3n(c(=O)c2c1C)CCC3,110,106
O=C(CS(=O)(=O)c1cccc2nsnc12)N1CCN(c2ccccc2)CC1,106,101
COc1ccc(Cl)cc1Nc1cc(C)nc2nc(-c3ccccc3C)nn12,108,109
CCOc1ccc(C2c3c(oc4ccc(C)cc4c3=O)C(=O)N2CCCN(C)C)cc1OC (stereo unspecified),103,92
COc1ccc(-c2cc(-c3ccccc3)c(C#N)c(SCC(O)CS(=O)(=O)Cc3ccc(Cl)cc3)n2)cc1 (stereo unspecified),105,104
COc1ccc(-n2c(-c3ccco3)nc3c(cnn3-c3ccc(Cl)cc3)c2=O)cc1,103,103
Cc1cc(C)cc(N2C(=O)N(Cc3cc(=O)n4ccccc4n3)c3ccccc3S2(=O)=O)c1,101,93
O=C(/C=C/c1cn(CC(O)CN2CCCCCC2)c2ccccc12)c1ccc(Br)cc1 (stereo unspecified),121,128
O=S(=O)(c1ccc(Br)cc1)c1nnn2c1nc(N1CCOCC1)c1sccc12,107,103
Cc1oc2ncn(CC(C)C)c(=O)c2c1C(=O)N1CCN(c2cccc(C(F)(F)F)c2)CC1,115,109
Cc1cccc(C(=O)NNc2ncnc3c2cnn3-c2ccc(C)c(Cl)c2)c1,105,108
COc1cc(CN(C(=O)COc2ccc(F)cc2)c2ccccn2)cc(OC)c1OC,109,112
N#Cc1c(C(F)(F)F)cc(-c2cccs2)nc1SCC(=O)Nc1cccc(Br)c1,115,129
COC(=O)c1cnn2c(C)c(Cc3c(C)cc(C)cc3C)c(C)nc12,113,108
CCc1ccc(NC(=O)Cn2ncc3c(C)n(Cc4cccc(Cl)c4)c(C)c3c2=O)cc1,104,107
Cc1cc(-c2ccccc2)nc2cc(C(=O)Nc3ccc(Cl)c(Cl)c3)nn12,106,111
CCCOc1ccc(C(=O)Nc2sc3c(c2C(=O)OCC)CCCCC3)cc1,106,109
COc1ccc(NC(=O)CCCN2C(=O)C(c3ccccc3)Oc3cccnc32)cc1OC (stereo unspecified),101,103
Cc1c(Cl)cccc1-n1ncc(C(=O)N2CCc3ccccc3C2)c1C1CCN(C(=O)OC(C)(C)C)CC1,113,112
COc1cccc(N2CCN(C(=O)C3CCCN(S(=O)(=O)c4cccc5nsnc45)C3)CC2)c1 (stereo unspecified),108,118
COc1ccccc1C(=O)Nc1cccc(OCc2cc(=O)n3c4c(sc3n2)CCCC4)c1,99,102
COc1ccccc1C(=O)Nc1ccc(-c2cc(C(F)(F)F)nn2-c2ccccc2)cc1,101,103
CCOC(=O)c1cccc(NC(=O)CC2C(=O)N(c3ccc(C)cc3)C(=O)N2Cc2cccc(OC)c2)c1 (stereo unspecified),98,102

# A few values from the entries so far.
# Entry of COc1ccccc1C(=O)Nc1ccc(-c2cc(C(F)(F)F)nn2-c2ccccc2)cc1 in Polio RdRp inh: 101
# Entry of COc1ccccc1C(=O)Nc1cccc(OCc2cc(=O)n3c4c(sc3n2)CCCC4)c1 in Polio RdRp inh: 99
# Entry of COc1ccc(NC(=O)CCCN2C(=O)C(c3ccccc3)Oc3cccnc32)cc1OC (stereo unspecified) in Polio RdRp inh: 101
# Entry of Cc1cc(-c2ccccc2)nc2cc(C(=O)Nc3ccc(Cl)c(Cl)c3)nn12 in Polio RdRp inh: 106
# Entry of COc1cc(CN(C(=O)COc2ccc(F)cc2)c2ccccn2)cc(OC)c1OC in Polio RdRp inh: 109
# Entry of CCc1ccc(NC(=O)Cn2ncc3c(C)n(Cc4cccc(Cl)c4)c(C)c3c2=O)cc1 in Polio RdRp inh: 104
# Entry of N#Cc1c(C(F)(F)F)cc(-c2cccs2)nc1SCC(=O)Nc1cccc(Br)c1 in Polio RdRp inh intensity: 129

# Compound activity (PubChem BioAssay)
